Mtb MenB inh – blocks the Mycobacterium tuberculosis MenB enzyme. P9WNP5. MenB enzyme assay, absorbance read-out; some hits fall short of the stated cut. inhibition, %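 (about 12 µg/mL by stock and volumes)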. hit rate 0.43% among 100,000. AID 540299;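 active means mean of two replicates above 30%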;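 further: 0% = no compound and 100% = wells with inactive enzyme; the first replicate is given; strong numbers were not always called active; inactives centre near -10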
Target sequence (P9WNP5 whole entry, looked up): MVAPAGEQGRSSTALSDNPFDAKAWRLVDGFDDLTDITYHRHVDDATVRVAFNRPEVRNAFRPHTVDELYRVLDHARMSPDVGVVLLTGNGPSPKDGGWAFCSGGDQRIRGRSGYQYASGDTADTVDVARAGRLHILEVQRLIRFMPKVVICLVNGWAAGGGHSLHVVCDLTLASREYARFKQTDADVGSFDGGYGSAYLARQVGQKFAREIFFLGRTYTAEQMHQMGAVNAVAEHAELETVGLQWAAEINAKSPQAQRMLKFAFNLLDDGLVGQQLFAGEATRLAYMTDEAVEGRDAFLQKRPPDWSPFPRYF
Polio RdRp inh – inhibitors of poliovirus RNA polymerase binding and polymerization; % elongation, % (compound at 16.7 µg/mL); poliovirus polymerase elongation, fluorescence polarization; active compounds read low; hit rate 0.66% among 150,000; in the data active means % elongation below about 90%; further: some results filed as inactive read as strong as hits
MbtI inh – inhibitors of Mycobacterium tuberculosis siderophore enzyme MbtI. AID 493033. purified MbtI enzyme, fluorescence intensity read-out. hit rate 0.89% among 100,000. inhibition, %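 (about 17 µg/mL by stock and volumes)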. P9WFX0;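 active means above 50% in both replicates, above 80% if mildly self-fluorescent; inactive means the rest, strongly fluorescent compounds included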;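 further: 0% = mean of negative and 100% = mean of positive controls; one replicate is shown; some compounds called inactive have numbers as strong as hits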
Target sequence (P9WFX0 whole entry, looked up): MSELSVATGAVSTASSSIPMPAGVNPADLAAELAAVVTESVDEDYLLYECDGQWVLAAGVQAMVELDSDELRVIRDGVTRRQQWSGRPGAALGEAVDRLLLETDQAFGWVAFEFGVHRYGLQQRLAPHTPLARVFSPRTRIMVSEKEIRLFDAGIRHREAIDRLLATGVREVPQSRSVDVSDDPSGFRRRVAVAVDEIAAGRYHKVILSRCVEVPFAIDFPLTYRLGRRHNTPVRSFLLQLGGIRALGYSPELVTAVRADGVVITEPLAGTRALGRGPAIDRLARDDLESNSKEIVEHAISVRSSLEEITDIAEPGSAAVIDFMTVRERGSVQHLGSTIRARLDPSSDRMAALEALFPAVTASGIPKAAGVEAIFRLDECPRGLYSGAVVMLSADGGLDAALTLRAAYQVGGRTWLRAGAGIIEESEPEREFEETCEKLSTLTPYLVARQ
Polio RdRp inh intensity – further read-out of Polio RdRp inh, marked with its call; % elongation; measured here: total intensity read-out; formula for this scale not given here;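 total fluorescence in place of polarization; lower means less elongation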
The depositor's hits bear a star.

Screening CN1CCN(C(=S)NC(=O)c2ccccc2)CC1 returned Mtb MenB inh 26, Polio RdRp inh 102, MbtI inh -1 and Polio RdRp inh intensity 102.
For Cc1ccc(C(=O)NC(C)C(c2cccs2)N2CCN(C)CC2)cc1 (stereo unspecified) the results were Mtb MenB inh -17, Polio RdRp inh 102, MbtI inh -9 and Polio RdRp inh intensity 104.
`CC(=O)Nc1ccc(SCC(=O)N2N=C(c3ccc(Cl)cc3)CC2c2ccco2)cc1` (stereo unspecified) gave Mtb MenB inh -25, Polio RdRp inh 107, MbtI inh 14 and Polio RdRp inh intensity 102.
`CCCCc1sc(N)nc1-c1ccc2c(c1)CCN2S(C)(=O)=O` gave Mtb MenB inh -16, Polio RdRp inh 104, MbtI inh 0 and Polio RdRp inh intensity 103.
Screening CC(C)(C)NC(=O)COc1cc(N2CCOCC2)c2ccccc2c1Cl returned Mtb MenB inh -12, Polio RdRp inh 101, MbtI inh -64 and Polio RdRp inh intensity 101.
COCCN1CN=C(Nc2nc3ccccc3s2)NC1 was read as Mtb MenB inh -2, Polio RdRp inh 99, MbtI inh 18 and Polio RdRp inh intensity 102.
For O=C(CN1CCN(c2ccccc2Cl)CC1)N1CCNC1=O the results were Mtb MenB inh -15, Polio RdRp inh 105, MbtI inh -2 and Polio RdRp inh intensity 110.
`CCOc1ccc(I)cc1C#N` gave Mtb MenB inh 8, Polio RdRp inh 100, MbtI inh -17 and Polio RdRp inh intensity 102.
`Cc1ccc(/C(O)=C(\C#N)c2nc3ccccc3s2)cc1C` gave Mtb MenB inh 4, Polio RdRp inh 100, MbtI inh 9 and Polio RdRp inh intensity 101.
CCN(Cc1ccccc1)C(=O)c1ccc(CS(=O)c2ccccc2C)o1 (stereo unspecified) was read as Mtb MenB inh 4, Polio RdRp inh 99, MbtI inh -11 and Polio RdRp inh intensity 104.
For CNC(=O)c1c(NC(=O)c2nc3ccccc3s2)sc(C)c1C the results were Mtb MenB inh -5, Polio RdRp inh 102, MbtI inh 3 and Polio RdRp inh intensity 105.
Screening CC(=O)N1CCN(C(=O)c2cccc(S(=O)(=O)N(C)C(C)C)c2)CC1 returned Mtb MenB inh -1, Polio RdRp inh 101, MbtI inh -10 and Polio RdRp inh intensity 103.
For CN(C(=O)c1nn(C)c2c1CSc1ccccc1-2)c1ccccc1Cl the results were Mtb MenB inh -31, Polio RdRp inh 106, MbtI inh -9 and Polio RdRp inh intensity 108.
`Cc1nn(-c2ccccc2)c2c1CC1(C(=O)NC(=O)c3ccccc31)C1CCCN21` (stereo unspecified) gave Mtb MenB inh 11, Polio RdRp inh 83*, MbtI inh 35 and Polio RdRp inh intensity 82*.
For COc1ccc(-c2cc(C(F)(F)F)nc(SCCC(=O)N(C)c3ccccc3)n2)cc1 the results were Mtb MenB inh -14, Polio RdRp inh 104, MbtI inh -5 and Polio RdRp inh intensity 101.
CCOC(=O)c1cn2nc(-c3ccc(OCC)cc3)cc2nc1C was read as Mtb MenB inh -13, Polio RdRp inh 102, MbtI inh 16 and Polio RdRp inh intensity 103.
CCN(CC)C(=O)c1cc(-c2ccccc2O)on1 was read as Mtb MenB inh -19, Polio RdRp inh 101, MbtI inh -10 and Polio RdRp inh intensity 96.
Screening Cc1ccc(COc2ccccc2C(N)=O)cc1 returned Mtb MenB inh 12, Polio RdRp inh 107, MbtI inh 11 and Polio RdRp inh intensity 98.
`CCn1cc(C2=NC(c3ccccc3)CO2)c2ccccc21` (stereo unspecified) gave Mtb MenB inh -5, Polio RdRp inh 101, MbtI inh 42 and Polio RdRp inh intensity 103.
For COc1ccccc1NC1=NC2(N=C(N)N1)C(=O)N(C(C)=O)c1ccccc12 (stereo unspecified) the results were Mtb MenB inh -8, Polio RdRp inh 104, MbtI inh 0 and Polio RdRp inh intensity 104.

Structures from the list above containing a Cl atom:
`CC(=O)Nc1ccc(SCC(=O)N2N=C(c3ccc(Cl)cc3)CC2c2ccco2)cc1` (stereo unspecified) gave Mtb MenB inh -25, Polio RdRp inh 107, MbtI inh 14 and Polio RdRp inh intensity 102.
Screening CC(C)(C)NC(=O)COc1cc(N2CCOCC2)c2ccccc2c1Cl returned Mtb MenB inh -12, Polio RdRp inh 101, MbtI inh -64 and Polio RdRp inh intensity 101.
For O=C(CN1CCN(c2ccccc2Cl)CC1)N1CCNC1=O the results were Mtb MenB inh -15, Polio RdRp inh 105, MbtI inh -2 and Polio RdRp inh intensity 110.
For CN(C(=O)c1nn(C)c2c1CSc1ccccc1-2)c1ccccc1Cl the results were Mtb MenB inh -31, Polio RdRp inh 106, MbtI inh -9 and Polio RdRp inh intensity 108.

Compounds above containing an aryl thioether with sulfur outside any ring:
`CC(=O)Nc1ccc(SCC(=O)N2N=C(c3ccc(Cl)cc3)CC2c2ccco2)cc1` (stereo unspecified) gave Mtb MenB inh -25, Polio RdRp inh 107, MbtI inh 14 and Polio RdRp inh intensity 102.
For COc1ccc(-c2cc(C(F)(F)F)nc(SCCC(=O)N(C)c3ccccc3)n2)cc1 the results were Mtb MenB inh -14, Polio RdRp inh 104, MbtI inh -5 and Polio RdRp inh intensity 101.

Following part
Screening CNCC(=O)Nc1cc(C)ccc1C returned Mtb MenB inh -10, Polio RdRp inh 103, MbtI inh -7 and Polio RdRp inh intensity 100.
`COC(=O)c1ccc(S(=O)(=O)N(CCO)CCO)n1C` gave Mtb MenB inh 12, Polio RdRp inh 101, MbtI inh 1 and Polio RdRp inh intensity 95.
`CCc1ccccc1NC(=O)CN1CCNCC1` gave Mtb MenB inh 11, Polio RdRp inh 102, MbtI inh 1 and Polio RdRp inh intensity 108.
O=C(OC1CCCCC1=O)c1cccnc1Cl (stereo unspecified) was read as Polio RdRp inh 102, MbtI inh -5 and Polio RdRp inh intensity 105.
COc1cc(OC)cc(C2CC(OC(=O)Cn3ncc4ccccc4c3=O)C(=O)N2C)c1 (stereo unspecified) was read as Mtb MenB inh 13, Polio RdRp inh 101, MbtI inh 2 and Polio RdRp inh intensity 101.
`CCOC(=O)CC1C(=O)NCCN1Cc1ccc(Cl)c(F)c1` (stereo unspecified) gave Mtb MenB inh -5, Polio RdRp inh 100, MbtI inh -9 and Polio RdRp inh intensity 99.
Screening CCOC(=O)c1ccc(NC(=O)CCOc2cccc(C)c2)cc1 returned Polio RdRp inh 102, MbtI inh -8 and Polio RdRp inh intensity 106.
Screening CS(=O)(=O)c1ccccc1C(=O)Nc1ccc(-c2nc3ccccc3o2)cc1 returned Mtb MenB inh -36, Polio RdRp inh 100, MbtI inh 8 and Polio RdRp inh intensity 106.
COc1cc(/C=N/OCC(=O)N2C(C)CCCC2C)ccc1OC(F)F (stereo unspecified) was read as Mtb MenB inh -28, Polio RdRp inh 102, MbtI inh -3 and Polio RdRp inh intensity 97.
Screening O=C(NC1CCN(c2ncccn2)CC1)c1c(F)cccc1F returned Mtb MenB inh -19, Polio RdRp inh 103, MbtI inh 34 and Polio RdRp inh intensity 101.
Screening COC(=O)C1=CO[C@H](C)[C@@H]2CN3CCC4(C(=O)Nc5ccccc54)C3C[C@H]12 (stereo partly specified) returned Mtb MenB inh -2, Polio RdRp inh 108 and Polio RdRp inh intensity 109.
For COc1ccccc1OCCNC(=O)c1ccc(-n2cnnc2)cc1Cl the results were Mtb MenB inh -32, Polio RdRp inh 102, MbtI inh -11 and Polio RdRp inh intensity 105.
`CCC(=O)Nc1nnc(CC(=O)N/N=C/c2ccc(O)cc2)s1` gave Mtb MenB inh 14, Polio RdRp inh 106, MbtI inh -53 and Polio RdRp inh intensity 107.
For CN(C)S(=O)(=O)c1ccc(NCc2c(C#N)oc3ccc(Br)cc23)cc1 the results were Mtb MenB inh -12, Polio RdRp inh 99, MbtI inh 5 and Polio RdRp inh intensity 103.
Screening COc1ccc(-c2sc(/N=C/c3cccs3)c(C#N)c2C)cc1OC returned Mtb MenB inh -14, Polio RdRp inh 105, MbtI inh -10 and Polio RdRp inh intensity 102.
Screening COc1ccc(N(Cc2nc(N)nc(N)n2)S(=O)(=O)c2cc(C)ccc2C)cc1 returned Mtb MenB inh -14, Polio RdRp inh 101, MbtI inh -6 and Polio RdRp inh intensity 103.
`COc1cc(C#N)ccc1OCC(=O)Nc1cccc2nsnc12` gave Mtb MenB inh -1, Polio RdRp inh 100, MbtI inh -7 and Polio RdRp inh intensity 113.
Screening O=C(NC1CCCCC1)C1CCCN1C(=O)Oc1ccccc1 (stereo unspecified) returned Mtb MenB inh -16, Polio RdRp inh 105 and Polio RdRp inh intensity 110.
Screening O=C(O)c1ccccc1C(=O)NCc1ccccc1 returned Mtb MenB inh -9, Polio RdRp inh 102, MbtI inh -29 and Polio RdRp inh intensity 102.
Nc1c(NC2CCN(Cc3ccccc3)CC2)c2ccccc2oc1=O was read as Mtb MenB inh -1, Polio RdRp inh 101, MbtI inh -6 and Polio RdRp inh intensity 105.
Screening O=C(COc1ccc(F)cc1)Nc1ccc2c(c1)OCCO2 returned Mtb MenB inh -17, Polio RdRp inh 100, MbtI inh -6 and Polio RdRp inh intensity 104.
Screening CN(Cc1ccccc1)C(=O)CSc1nnc(-c2ccccc2F)n1N returned Mtb MenB inh 2, Polio RdRp inh 107, MbtI inh 10 and Polio RdRp inh intensity 97.
Screening c1coc(-c2nc(-c3ccco3)c(-c3ccco3)nc2-c2ccco2)c1 returned Mtb MenB inh -84, Polio RdRp inh 110, MbtI inh 55 and Polio RdRp inh intensity 120.
Screening CCSC1=N/C(=C\c2ccc(-c3cccc(Cl)c3)o2)C(=O)S1 returned Mtb MenB inh -42, Polio RdRp inh 109, MbtI inh -6 and Polio RdRp inh intensity 112.
`CN(C)C(=O)CSc1nnc2c(Cl)cc(Cl)cn12` gave Mtb MenB inh 15, Polio RdRp inh 100, MbtI inh 6 and Polio RdRp inh intensity 108.
CC1(C)CC(=O)C(C=NC2CCCC2)=C(O)C1 was read as Mtb MenB inh -14, Polio RdRp inh 102, MbtI inh 11 and Polio RdRp inh intensity 100.
CC(C)CN1C(=O)c2ccc(C(=O)Nc3ccncc3)cc2C1=O was read as Mtb MenB inh -19, Polio RdRp inh 103, MbtI inh -5 and Polio RdRp inh intensity 106.
For CCN1CC(=O)N(CC)C1=S the results were Mtb MenB inh -29, Polio RdRp inh 106, MbtI inh 5 and Polio RdRp inh intensity 107.
Screening CCCCOc1ccc(C(=O)OCC2CCCN3CCCCC23)cc1OC (stereo unspecified) returned Mtb MenB inh 11, Polio RdRp inh 104, MbtI inh -12 and Polio RdRp inh intensity 102.
`COc1ccc2ncc(S(=O)(=O)c3ccc(C)c(C)c3)c(N3CCN(C)CC3)c2c1` gave Mtb MenB inh -31, Polio RdRp inh 102, MbtI inh -4 and Polio RdRp inh intensity 104.
For Cc1ccc(Nc2c(-c3ccc(N4CCOCC4)cc3)nc3ccccn23)cc1 the results were Mtb MenB inh -58, Polio RdRp inh 100, MbtI inh 9 and Polio RdRp inh intensity 103.
Screening Cc1ccc(S(C)(=O)=O)s1 returned Mtb MenB inh -74, Polio RdRp inh 97, MbtI inh -10 and Polio RdRp inh intensity 106.
OCCCc1nc2ccccc2n1CC1CCCCC1 was read as Mtb MenB inh -18, Polio RdRp inh 97, MbtI inh 3 and Polio RdRp inh intensity 100.
For CC1CN(C(=O)Nc2ccc(F)cc2)c2ccccc2S1 (stereo unspecified) the results were Mtb MenB inh -2, Polio RdRp inh 101, MbtI inh 1 and Polio RdRp inh intensity 99.
For CN(C)c1ccc(/C=C2/C(=O)C3CCN2CC3)cc1 the results were Mtb MenB inh -2, Polio RdRp inh 114, MbtI inh -2 and Polio RdRp inh intensity 131.
`Cc1nn(-c2ccccc2)c2sc(C(=O)NCCCN3CCCC3=O)cc12` gave Polio RdRp inh 101, MbtI inh 26 and Polio RdRp inh intensity 103.
`Cc1cc(C)cc(-n2c(SCC(=O)Nc3ccccc3C(F)(F)F)nc3c(c2=O)SCC3)c1` gave Mtb MenB inh -3, Polio RdRp inh 102, MbtI inh 11 and Polio RdRp inh intensity 100.
For COc1ccccc1CNC(=O)COC(=O)Cc1ccsc1 the results were Mtb MenB inh -34, Polio RdRp inh 104, MbtI inh -6 and Polio RdRp inh intensity 96.
For Cc1ccc(NC(=O)NC(=O)Cn2ccsc2=N)c(C)c1 the results were Mtb MenB inh -12, Polio RdRp inh 100, MbtI inh -5 and Polio RdRp inh intensity 102.
For CC1CN(CC(=O)C(C#N)c2ccccc2)CC(C)O1 (stereo unspecified) the results were Mtb MenB inh 6, Polio RdRp inh 100, MbtI inh -3 and Polio RdRp inh intensity 104.
For CNC(=O)/C(=C\c1ccc(Cl)cc1)NC(=O)c1ccco1 the results were Mtb MenB inh -15, Polio RdRp inh 101, MbtI inh 7 and Polio RdRp inh intensity 99.
`CC(C)(C)n1cnc2cc(NCc3ccccn3)ccc21` gave Mtb MenB inh 0, Polio RdRp inh 100, MbtI inh -3 and Polio RdRp inh intensity 103.
For Cc1ccc(S(=O)(=O)Nc2cc(-c3ccccc3)nn2C)cc1Cl the results were Mtb MenB inh -10, Polio RdRp inh 102, MbtI inh -3 and Polio RdRp inh intensity 102.
For CN(C)S(=O)(=O)N1CCn2cccc2C1c1ccccc1 (stereo unspecified) the results were Mtb MenB inh -3, Polio RdRp inh 106, MbtI inh -4 and Polio RdRp inh intensity 112.
Screening COc1ccc(C(=O)c2coc3ccc(O)c(CN4CCCC4)c23)cc1 returned Mtb MenB inh -8, Polio RdRp inh 102 and Polio RdRp inh intensity 100.
For Cc1cc(C)cc(NC(=O)c2ccc3c(c2)NC(=O)c2ccccc2S3)c1 the results were Mtb MenB inh -7, Polio RdRp inh 105, MbtI inh 10 and Polio RdRp inh intensity 107.

Screening results deposited in PubChem by ICCB-Longwood Screening Facility, Harvard Medical School.
